Screens from PubChem.
Mtb growth: M. tuberculosis H37Rv growth inhibitors, H37Rv strain (AID 1626); 0.95% of 220,000 active; M. tuberculosis H37Rv growth inhibition; higher % means a stronger effect; inhibition, % at 10 µM, or IC50 in µM where a hit was titrated;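 active = confirmed in a dose series; inconclusive = inhibition above 80% but not taken into the dose series; inactive = below 80% or under 30% at every dose of the series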;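 also: bacteria incubated seven days before Alamar blue readout; 0% = bacteria only wells and 100% = bacteria with antibiotic wells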
YopH PTP inh: YopH tyrosine phosphatase inhibitors, primary screen, biochemical, fluorescence Ex485/Em525. inhibition, %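 (about 10 µM by stock and volumes)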. YopH tyrosine phosphatase [Yersinia enterocolitica]. 0.16% of 140,000 active;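 active = inhibition of 50% or more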;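 also: controls were vehicle for no effect and minimum signal wells for full effect; inactives centre near -20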
RecA splice inh: Mtb RecA intein splicing inhibitors, primary screen, biochemical, fluorescence, HTS. AID 2221, 2009. 0.75% of 290,000 active. Protein RecA (Mycobacterium tuberculosis (strain ATCC 25618 / H37Rv)), P9WHJ3. inhibition, %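 (about 9 µM by stock and volumes)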. cell-free RecA intein splicing; in the data active = inhibition above about 30%; inconclusive = no clear call, values can overlap the other calls;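 also: 0% = vehicle wells and 100% = reference inhibitor control wells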
Target sequence (P9WHJ3 whole entry, looked up, canonical isoform): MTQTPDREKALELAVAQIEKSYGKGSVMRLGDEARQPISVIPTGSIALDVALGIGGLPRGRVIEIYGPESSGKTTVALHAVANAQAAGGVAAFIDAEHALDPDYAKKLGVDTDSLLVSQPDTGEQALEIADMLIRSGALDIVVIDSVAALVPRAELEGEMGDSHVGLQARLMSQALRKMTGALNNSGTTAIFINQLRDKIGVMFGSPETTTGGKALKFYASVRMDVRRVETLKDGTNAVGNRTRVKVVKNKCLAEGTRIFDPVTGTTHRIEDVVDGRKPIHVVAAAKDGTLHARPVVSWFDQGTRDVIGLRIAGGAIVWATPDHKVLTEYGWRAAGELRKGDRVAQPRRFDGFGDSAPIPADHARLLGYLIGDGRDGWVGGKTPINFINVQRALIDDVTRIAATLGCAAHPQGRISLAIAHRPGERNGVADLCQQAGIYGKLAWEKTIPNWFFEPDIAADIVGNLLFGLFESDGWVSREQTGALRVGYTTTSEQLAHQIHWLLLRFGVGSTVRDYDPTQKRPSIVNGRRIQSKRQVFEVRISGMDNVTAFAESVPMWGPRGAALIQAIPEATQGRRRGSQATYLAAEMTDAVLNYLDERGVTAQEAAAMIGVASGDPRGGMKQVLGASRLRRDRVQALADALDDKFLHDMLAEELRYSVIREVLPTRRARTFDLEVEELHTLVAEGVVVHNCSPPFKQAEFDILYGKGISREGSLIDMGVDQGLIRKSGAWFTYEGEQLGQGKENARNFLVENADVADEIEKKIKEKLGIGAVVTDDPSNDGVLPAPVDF
Mtb betalactam: beta-lactam sensitization of Mtb H37Rv, H37Rv; 0.27% of 330,000 active; AID 434955, 2010; inhibition, % at 25 µM; M. tuberculosis H37Rv growth with meropenem, percent inhibition; hits of this screen are not shown here;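 active = about 74% or more and at least 40 points above the plate without the antibiotic, then above 30% in a dose series; inconclusive = first-round hits that could not be retested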;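 also: growth measured after seven days incubation then overnight dye step; 0% = bacteria only wells and 100% = bacteria with antibiotic; twin plates without the antibiotic show which effects depend on it; some results filed as inactive read as strong as hits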
Arbovirus inh: antivirals against arbovirus infection, primary screen, cell-based, full library, 10K replicate subset. arbovirus infection cell-based antiviral screen. inhibition, % at 10 µM. 0.37% of 200,000 active;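 active = inhibition from about 30%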;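 also: bluetongue infection of BSR cells; cell survival read as ATP light after 72 h; 0% = infected wells without compound and 100% = uninfected wells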
Arbovirus inh repeat: further read-out of Arbovirus inh, marked with its call; inhibition, %; measured here: 10K subset replicate screen; many hits read low in the repeat;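 first of two repeat runs on a subset; 0% = infected and 100% = uninfected wells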
An asterisk follows results filed as active; ? = inconclusive; . = no result given. The list is partial; count on the stated rates, not on these rows.

SMILES | Mtb growth | YopH PTP inh | RecA splice inh | Mtb betalactam | Arbovirus inh | others
CCCCCNC(=O)Cc1ccc(S(=O)(=O)N2CCOCC2)s1 | . | . | 1.3 | -5 | .
COc1ccc(OC)c(N(CC(N)=O)S(=O)(=O)c2ccc(OC)c(OC)c2)c1 | 5% | -4 | 1.5 | -1 | 8
COCCCNC(=O)C1CCCCN1S(=O)(=O)c1ccc(F)cc1 (stereo not drawn) | -5% | -26 | 1.2 | -2 | 5
O=C(NCCC1CCCCN1S(=O)(=O)c1ccccc1)C(=O)NCc1ccccn1 (stereo not drawn) | . | . | 1.3 | 0 | .
Cc1ccc(/C=C2/C(=O)NC(=O)N(CCc3ccc(F)cc3)C2=O)s1 | 5% | -28 | -3.7 | 1 | 0
Cc1ccc(-c2c3c(nc4sc(C(N)=O)c(N)c24)CCCC3)o1 | 2% | -22 | 0.3 | 7 | 17
CC1CCc2sc(C(=O)NCc3ccccn3)cc2C1 (stereo not drawn) | . | . | 1.9 | -10 | .
CC1=CCC(C(=O)O)(C(=O)N/N=C/c2cccs2)C(c2ccc([N+](=O)[O-])cc2)C1 (stereo not drawn) | -5% | -11 | 3.6 | -6 | -6
CC(=O)c1cc(C)ccc1OC(=O)c1ccncc1 | . | . | 3.7 | -9 | .
O=C(CCCN=C1NS(=O)(=O)c2ccccc21)OCC(=O)c1ccccc1Cl | . | . | -1.8 | -2 | .
CC(C)(CN1CCN(c2ccccc2)CC1)NS(=O)(=O)c1ccccc1 | 4% | . | -2.2 | 17 | .
Cc1cc(C)cc(SCc2noc(C(=O)NCC3CC3)c2C(=O)NCC2CC2)c1 | 0% | . | -3.3 | 1 | .
CCCCC1(Cc2cccc([N+](=O)[O-])c2)C(=O)N(c2ccccc2)N(c2ccccc2)C1=O | -3% | -35 | 18 | 1 | -10
CS/C(=N\S(=O)(=O)c1ccc(N)cc1)NS(=O)(=O)c1cccs1 | 1% | -12 | -2.8 | 4 | 1 | Arbovirus inh repeat=4
COc1ccc(C2CC(c3cccs3)=NN2C(=O)CSc2nc(=O)n3ccccc3n2)cc1 (stereo not drawn) | . | . | 3.1 | 5 | .
Cc1cc(C)cc(N2CN=c3s/c(=C\c4ccco4)c(=O)n3C2)c1 | -1% | -12 | -2.0 | 17 | 3
Cc1cc(C)n2nc(SCc3c(F)cccc3Cl)nc2n1 | . | . | -1.3 | 2 | .
CC1CC(C(F)(F)C(F)(F)F)n2nc(C(=O)O)cc2N1 (stereo not drawn) | . | -27 | -0.4 | -7 | 3
Cc1ccc(SC/C(O)=C(\C#N)c2nc3ccccc3s2)cc1 | -4% | -68 | 1.2 | 15 | -21
Cc1ccc(-n2c(-c3nn(C)c(C)c3Cl)n[nH]c2=S)cc1 | 5% | -45 | -0.8 | -7 | -1
COc1ccccc1Nc1nc(N)nc(-c2oc3ccccc3c2C)n1 | 5% | -10 | -5.7 | 4 | 2
O=C(O)c1ccc(NC(=O)c2ccccc2NC(=O)c2ccccc2Cl)cc1 | . | . | -1.2 | 9 | .
O=C(NNC(=O)c1cccnc1)Nc1ccc([N+](=O)[O-])cc1 | 6% | -5 | -1.5 | 3 | 14
CCc1nc2sc3c(c2c(=O)n1NC(=O)CCl)CCCC3 | -15% | -22 | 11 | -18 | 3
CS(=O)(=O)N(CC(=O)Nc1ccc2c(c1)OCO2)Cc1ccccc1 | -1% | -59 | 2.1 | -7 | 2
COc1ccc(-c2c(C)nn3c(N4CCC(C(=O)NCCN(C)C)CC4)cc(C)nc23)cc1OC | -20% | -24 | 0.2 | 1 | -15
COc1cc(/C=C(\C#N)C(=O)NC(C)C)ccc1OCc1ccc(C(=O)O)cc1 | 2% | . | -0.3 | 2 | .
O=C(CN1CCN(C(=O)c2cccc(F)c2)CC1)NC1CCCCC1 | 1% | -11 | 4.4 | -8 | -5
C=CC[N+]1(CC(=O)NCc2ccc(NC(C)=O)cc2)CCOCC1 | . | . | 0.1 | -4 | .
Cc1ccc(-c2cc(C(F)F)n3ncc(C(=O)Nc4c(C)nn(Cc5ccccc5Cl)c4C)c3n2)cc1 | 2.2µM* | -21 | 0.5 | 96 | -30
O=C1NC(=S)N/C1=C/c1ccc(-c2c(Br)cc([N+](=O)[O-])cc2Br)o1 | . | 7 | . | . | -25
CCCCN(C(=O)c1oc2ccc(OCC)cc2c1C)c1c(N)n(CCCC)c(=O)[nH]c1=O | . | . | -2.1 | -5 | .
Cc1ccccc1CSc1ncnc2ccccc12 | 3% | . | 10 | 16 | 3
COc1cccc(C(C)N(C)Cc2nc(COc3ccccc3)no2)c1 (stereo not drawn) | 8% | . | 0.6 | -10 | .
Nc1nc2c(ncn2C2C[C@H](O)[C@@H](CO)O2)c(=O)[nH]1 (stereo partly drawn) | . | . | -3.9 | -4 | .
O=C(c1cc2ccccc2o1)N1CCN(C/C=C/c2ccccc2)CC1 | . | . | 6.6 | ? | .
C[C@H](C(=O)O)c1n[nH]c(=O)c2ccccc12 | -4% | -48 | -0.5 | -3 | 7
c1ccc2c(Cn3ccnc3)c[nH]c2c1 | -6% | 22 | -1.7 | -1 | 2
COCCn1c(SCC(=O)Nc2cccc(S(N)(=O)=O)c2)nc2cc(Cl)ccc2c1=O | -6% | . | . | -3 | -1
CCCn1c(SCC(=O)Nc2nnc(C)s2)nnc1C1CC1 | . | . | 3.4 | -4 | .
O=C(COc1ccccc1)N1CCN(c2ncnc3c2cnn3-c2ccccc2)CC1 | 13% | -178 | 1.5 | 31 | 12
COCCn1c(SCCN2CCOCC2)nc2c1c(=O)[nH]c(=O)n2C | 36% | -39 | 8.8 | -3 | 9 | Arbovirus inh repeat=2
C=CCn1c(SCC(C)=O)nc2sc3c(c2c1=O)CCC3 | . | . | -0.4 | 9 | .
OC(CSc1c(Cl)cccc1Cl)CN1CCN(c2ccccc2F)CC1 (stereo not drawn) | 24% | -41 | 6.3 | 25 | 4
O=C(OCn1ncc(Cl)c(Cl)c1=O)c1cccc(C(F)(F)F)c1 | 9% | -14 | 94* | 100 | -32
CC(C)Cc1ccc(S(=O)(=O)N2CCOCC2)cc1 | 4% | -33 | 0.1 | 4 | -3
CC(C)(C)S(=O)(=O)/C(C#N)=N/Nc1ccc(S(N)(=O)=O)cc1 | -1% | . | 2.4 | 2 | 6
CC(C)[C@@H](C(=O)NC1CC1)N1C(=O)N2CCc3c([nH]c4ccccc34)[C@@]2(C)C1=O | . | . | 6.0 | -12 | .
Cc1ccc(OCc2nnc(SCC(=O)N3C(C)CCCC3C)o2)cc1 (stereo not drawn) | . | . | -6.9 | -1 | .
COc1ccc(-n2cnc3cc(C(=O)NCC4CCCO4)ccc32)cc1 (stereo not drawn) | . | . | 0.7 | -3 | .

Overlap with the part before: five entries, then new ones.
SMILES | Mtb growth | YopH PTP inh | RecA splice inh | Mtb betalactam | Arbovirus inh | others
CC(C)Cc1ccc(S(=O)(=O)N2CCOCC2)cc1 | 4% | -33 | 0.1 | 4 | -3
CC(C)(C)S(=O)(=O)/C(C#N)=N/Nc1ccc(S(N)(=O)=O)cc1 | -1% | . | 2.4 | 2 | 6
CC(C)[C@@H](C(=O)NC1CC1)N1C(=O)N2CCc3c([nH]c4ccccc34)[C@@]2(C)C1=O | . | . | 6.0 | -12 | .
Cc1ccc(OCc2nnc(SCC(=O)N3C(C)CCCC3C)o2)cc1 (stereo not drawn) | . | . | -6.9 | -1 | .
COc1ccc(-n2cnc3cc(C(=O)NCC4CCCO4)ccc32)cc1 (stereo not drawn) | . | . | 0.7 | -3 | .
COc1ccc(CN2C(=O)c3cccc4cccc(c34)C2=O)cc1 | -4% | . | -2.2 | -6 | .
OCCC1CN(Cc2cccc3nonc23)CCN1C1CCCCC1 (stereo not drawn) | 3% | . | -2.6 | -8 | 4
O=C(c1noc2c1CCCC2)N1CCN(c2ccccc2)CC1 | -4% | -16 | 0.6 | 11 | 2
Cc1cc(NC(=O)COC(=O)COc2ccc(Cl)cc2C)c([N+](=O)[O-])cc1C | -2% | -14 | -1.1 | 53 | 6
COc1ccc(NC(=O)CN(C2CCCCC2)S(C)(=O)=O)cc1Cl | -1% | -17 | . | 2 | 10
Cc1cc(=O)[nH]c(SCC(=O)Nc2nnc(SCc3ccccc3)s2)n1 | -3% | . | 12 | -1 | 18
O=C(NCCc1ccccc1)C1CCC(=O)N(Cc2cccc(C(F)(F)F)c2)C1 (stereo not drawn) | . | . | -0.8 | -1 | .
O=C(Nc1cccc(-c2nc3cccnc3s2)c1)c1ccc(Cl)nc1 | -7% | . | -1.8 | 3 | .
O=C(OCN1C(=O)c2ccccc2C1=O)c1cccc(OC(F)F)c1 | . | . | -3.7 | 5 | .
Cc1ccc(-n2nc(C)c3c(C)c(CCC(=O)Nc4ccc(CN5CCCC5)cc4)c(C)nc32)cc1 | ? | . | 1.9 | 99 | .
N#CCCCSc1ncccc1-c1nc2ccccc2[nH]1 | -6% | -40 | -4.2 | -10 | 0
O=C(NC1CCCC1)C(c1ccncc1)N(Cc1cccs1)C(=O)c1csnn1 (stereo not drawn) | 7% | 9 | 4.2 | 13 | -10
Cc1ccsc1/C=C1/CN(C)Cc2c1nc1ccccc1c2C(=O)O | -2% | . | -7.3 | -9 | .
C=C(C)Cn1c(CCNC(=O)c2ccco2)nc2ccccc21 | . | . | 1.5 | -1 | .
COc1ccc(OCCCC(=O)NCCc2ccccc2)cc1 | -5% | -23 | 18 | 1 | -4
COc1cc(C2NC(C(=O)O)Cc3c2[nH]c2ccccc32)cc(OC)c1OC (stereo not drawn) | 1% | -43 | -0.9 | 2 | -13
CN(c1ccccc1)S(=O)(=O)c1ccc(C(=O)Nc2nnc(C3CC3)s2)cc1 | -1% | . | 2.7 | -4 | .
Cc1cc(NC(=O)CSCC(=O)N(C)Cc2ccc(Cl)c(Cl)c2)no1 | . | . | 1.9 | -19 | .
CCC(=O)N1CCN(c2ccc(NC(=O)c3c(F)c(F)c(OC)c(F)c3F)cc2)CC1 | -4% | -13 | -1.8 | 0 | 4
Cc1ccc(-n2cc(CNCCn3nc(C)cc3C)c(-c3ccc(F)cc3)n2)cc1 | ? | . | 3.8 | 100 | -36
COC(=O)C1=C(C)NC(C)=C(C(=O)OC)C1c1ccc(C)o1 | -13% | . | -1.1 | -8 | .
O=C(Nc1ccccc1)Nc1ccc2nnsc2c1 | -9% | . | 1.7 | -2 | .
COc1ccc(C(=O)NCc2nnc(SCC(=O)N3CCCC3)o2)cc1OC | . | . | -3.6 | 0 | .
Cc1ccc(S(=O)(=O)N2CCN(CC(=O)N/N=C/c3ccc(Br)s3)CC2)cc1 | -16% | -25 | 5.1 | 1 | -13
CCCNC(=O)C1CCC(CNS(=O)(=O)c2cccc3nsnc23)CC1 (stereo not drawn) | . | . | 1.2 | 2 | .
COc1ccc([C@@H]2[C@@H]3C(=O)N(C(C)(C)C)C(=O)[C@@H]3[C@]3(Cc4ccc(Cl)cc4)C(=O)N(c4cccc(C)c4)C(=O)N23)cc1 | . | . | 4.7 | -3 | .
COc1ccc(/C=C/c2cc(C(=O)O)c3ccccc3n2)cc1 | -4% | . | 0.8 | 0 | .
COc1ccc(C(CNC(=O)c2ccc(S(=O)(=O)Nc3ccccc3C)cc2)N2CCOCC2)cc1 (stereo not drawn) | . | . | -5.7 | 4 | .
O=C(Nc1ccc(F)cc1)N1CCN(C(=O)C2CCCO2)CC1 (stereo not drawn) | . | . | -0.2 | -20 | .
COc1ccc(NC(=O)CSc2nccc(C)n2)cc1 | 0% | -33 | -6.5 | 8 | 14
CC(=O)c1cccc(NC(=O)CN(Cc2ccccc2)S(C)(=O)=O)c1 | 0% | 8 | -6.4 | 13 | 2
COc1ccc(C(C(C(=O)c2ccco2)N2CCOCC2)N2CCOCC2)cc1 (stereo not drawn) | -3% | -23 | -1.0 | 4 | 8
Cc1cccc(-c2nnc(SCC3CNC(=O)O3)n2-c2ccc(Cl)cc2)c1 (stereo not drawn) | 3% | -15 | 1.6 | 7 | -4
COc1ccc(-c2ccc(OC(=O)NC3CCS(=O)(=O)C3)cc2)cc1 (stereo not drawn) | 9% | . | 2.1 | 87 | .
COC(=O)c1sc(N)c(C(=O)OC)c1COC(=O)C1CC(=O)N(Cc2ccco2)C1 (stereo not drawn) | -4% | -36 | 1.0 | 4 | -25
CC(=O)Nc1ccc(S(=O)(=O)NCCC(=O)OC(C)C(=O)c2ccc(C)cc2)cc1 (stereo not drawn) | . | . | 0.3 | 1 | .
